HTT prom inh – Primary qHTS for Identification of Small Molecule Inhibitors of Huntingtin Promoter Activity; actives 0.93% (n = 48,000); AID 1508623, 2021; HEK293 HTT promoter firefly luciferase reporter (activity 0% = vehicle and -100% = no light), 24 h; Potency, µM (series often up to 57.5 µM), for the others: at the highest dose activity change, negative = inhibition, most hits filed as inhibitors; active = well fitted inhibition curve with a large enough effect; inconclusive = small, poorly fitted or top-dose-only effect; inactive = no such curve, though single readings can be large or run the other way; also: nearly all actives have a fitted effect of over 50% in size
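HEK293 Fluc reporter, 2,500 cells/well, 24 h pre-culture; cpds up to 57.5 uM final, 24 h 37 degrees C; Dual-Glo, 10 min RT; normalized vehicle = 0%, zero RLU = -100%.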
PMP22 txn – Cell-based coincidence reporter assay to measure PMP22 gene transcription in S16 Pmp22-F2sN cells - Primary screen. Potency, µM (highest dose often 57.5 µM), inactives show at the top dose activity change, negative = inhibition, most hits filed as inhibitors. AID 1508649, 2021. actives 2% (n = 43,000). S16 Pmp22-F2sN Schwann cells (luciferase reporters placed in the Pmp22 gene), FLuc/NLuc coincidence luminescence, 24 h; active = clear falling dose curves in both reporters; inconclusive = both reporters move, but less clearly or upward; inactive = either reporter flat; the % is the NLuc reporter signal; also: % is scaled to controls: 0 for no effect and ±100 for the full control effect; some results filed as inactive show a strong effect at the top dose
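Schwann cells carrying the coincidence reporter were exposed to library compounds for 24 h at 37C, then lysed and read for FLuc and, after quenching, NLuc luminescence on a CCD imager.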
Numbers without * were called inactive; u = inconclusive; x = no result given; & = joins results of further samples; [ ] = remark or other dose. Potency is read from the fitted curve at half-maximal effect. Outcome played no part in choosing rows. About 2.4% of those tested had a hit in this group.

Results follow in this order: HTT prom inh | PMP22 txn
> CCc1ccc(C(=O)Nc2ccc3nn(-c4ccc(C)c(Cl)c4)nc3c2)cc1
    23% | 0%
> COc1ccc(CNC(=O)CN2C(=O)CCn3nc(-c4ccccc4)cc32)c(OC)c1
    -6% | -19%
> O=C(CN1C(=O)COc2ccc(S(=O)(=O)Nc3ccccc3)cc21)NCc1ccccc1Cl
    -6% | u
> CCCCn1c(=O)c2oc3ccccc3c2n(Cc2ccc(C)cc2)c1=O
    0% | -5%
> CCCNC(=O)C1CCN(c2nc3ccc(C)cc3[nH]2)CC1
    29% | -1%
> CC(C)CNC(=O)CCSc1nc(-c2ccc3c(c2)OCO3)cc(C(F)(F)F)n1
    -4% | -30%
> COc1ccc(Cl)cc1Nc1ccc2cc(S(=O)(=O)N3CCCCC3)ccc2n1
    -13% | u
> Cc1nc2c(-c3ccccc3)c(C)nn2c(C)c1CCC(=O)NCc1ccc(Cl)cc1
    -10% | -6%
> COc1ccc(NC(=O)C(=O)NCC(c2cccnc2)N2CCc3ccccc3C2)cc1 (stereo not given)
    u | -18%
> COc1cc(CCNC(=O)c2ccc3c(c2)c(C)c(C)n3Cc2cccc(C)c2)cc(OC)c1OC
    u | u
> O=C(CN1CCN(c2ccc(Cl)cc2)CC1)Nc1ccc(F)c(F)c1
    u | 56%
> O=C(Nc1ccc(F)cc1F)c1cc2c(=O)n3ccccc3nc2s1
    -6% | 15%
> COc1cccc(CNC(=O)CCc2cn(Cc3ccccc3Cl)c3ccccc23)c1
    u | u
> CN(N=O)C(=O)N[C@@H]1[C@@H](O)[C@H](O)[C@@H](CO)O[C@@H]1O
    11% | x
> Cc1ccc(OCC(=O)N(Cc2nc(-c3ccccc3)no2)C(C)C)cc1C
    -27% | u

Reprinted at random: 3 records from the list, in no set order.
Results follow in this order: HTT prom inh | PMP22 txn
> COc1ccc(NC(=O)C(=O)NCC(c2cccnc2)N2CCc3ccccc3C2)cc1 (stereo not given)
    u | -18%
> CN(N=O)C(=O)N[C@@H]1[C@@H](O)[C@H](O)[C@@H](CO)O[C@@H]1O
    11% | x
> O=C(Nc1ccc(F)cc1F)c1cc2c(=O)n3ccccc3nc2s1
    -6% | 15%

(next part)
Results follow in this order: HTT prom inh | PMP22 txn
> CCOc1ccc(NC(=O)CSc2nnc(-c3ccc(C)cc3)c(-c3ccc(C)cc3)n2)cc1
    2% | -1%
> O=C(Nc1ccc2[nH]c(=O)c(=O)[nH]c2c1)c1cccc(F)c1
    4% | -10%
> Cc1ccc(Cl)cc1NC(=O)c1cc(S(=O)(=O)N2CCOCC2)cn1C
    -1% | -16%
> CCN1c2ccccc2-c2nc(SCC(=O)Nc3c(C)cc(C)cc3C)ncc2S1(=O)=O
    u | u
> O=C(CCC1N=C2c3ccccc3N=C(SCc3ccccc3F)N2C1=O)NC1CCCCC1 (stereo not given)
    u | -29%
> Cc1cccc(OC(=O)c2cc(-c3ccc4c(c3)OCCO4)on2)c1C
    9% | -14%
> O=c1oc2ccc3ccccc3c2cc1-c1nnc(Nc2ccccc2)s1
    -2% | -2%
> CCc1cccc(N2C(=O)CS(=O)(=O)C23C(=O)N(Cc2ccccc2)c2ccc(C)cc23)c1 (stereo not given)
    u | -32%
> COc1ccc(CCNC(=O)c2ccc3c(c2)N(Cc2ccc(Cl)cc2)CCS3)c(OC)c1
    -27% | -30%
> COc1ccc(OC)c(NC(=O)c2noc3c2CCCC3)c1
    30% | -8%
> Cc1cc2oc(C(=O)Nc3sc4c(c3C(=O)NCc3ccccc3)CCCC4)cc(=O)c2cc1C
    -13% | 2%
> CCN[C@H]1C[C@H](C)S(=O)(=O)c2sc(S(N)(=O)=O)cc21
    -15%&-4% | x
> Cc1ccc(CSc2nc3cccnc3n2Cc2ccc(C(=O)NC3CCCCC3)cc2)cc1
    -4% | u
> Cc1ccccc1-c1ccnc2[nH]n(-c3ccccc3)c(=O)c12
    -30% | -1%
> O=C(Nc1ccc2oc(-c3ccc(Cl)cc3)nc2c1)c1ccc2ccccc2c1
    -8%[11.5 µM] | 12%

(list continues)
Results follow in this order: HTT prom inh | PMP22 txn
> CCOC(=O)Cc1ccc(NC(=O)N2CCC(CN3CCCCCC3)CC2)cc1
    -8% | 61%
> COc1ccc(C2CC(=O)c3cc(-c4nc(-c5cccc([N+](=O)[O-])c5)cs4)c(=O)n(-c4ccc(F)cc4)c3C2)cc1 (stereo not given)
    -3% | u
> CCOc1ccc(C(=O)NCCn2cc(SCC(=O)NCCc3ccc(OC)c(OC)c3)c3ccccc32)cc1
    u | u
> COc1cc(Cl)c(NC(=O)C(NS(=O)(=O)c2cccs2)C(C)C)c(OC)c1 (stereo not given)
    -14% | 15%
> COc1ccc(C(CC(=O)Nc2ccc(F)c(Cl)c2)N2Cc3ccccc3C2=O)cc1OC (stereo not given)
    -25% | 2%
> O=C1CC(=O)Nc2cc(S(=O)(=O)N3CCOc4ccc(Cl)cc43)ccc2N1
    -29% | u
> COc1cc(NC(=O)c2ccc(C)cc2)ccc1NC(=O)c1cc2ccccc2o1
    10% | -14%
> COc1cc(-c2ccno2)ccc1S(=O)(=O)N1CCN(c2ccc(F)cc2)CC1
    u | u
> CCOc1ccc(C(=O)Nc2ccc(-c3nc4cc(C)ccc4o3)cc2)cc1
    31%[activator] | -6%
> COc1ccc(N2CCN(C(=O)CCCCn3c(=O)[nH]c4ccsc4c3=O)CC2)cc1
    -18% | u
> CCn1cc2nc(SCC(=O)Nc3ccccc3F)n(Cc3ccc(C)cc3)c(=O)c2n1
    u | u
> CCN(C(=O)c1sc2nc3n(c(=O)c2c1C)CCCCC3)c1ccc(OC)cc1
    -6% | -6%
> Cc1cc(C)n(-c2nnc(Nc3cc(Cl)ccc3C)c3ccccc23)n1
    -23% | -27%
> O=C(NCc1ccccc1Cl)C(=O)NCC(c1ccco1)S(=O)(=O)c1cccs1 (stereo not given)
    -26% | -21%
> COc1ccc2nc(NC(=O)c3nc(SCc4cccc(C)c4)ncc3Cl)sc2c1
    -15% | 10µM*

The list continues:
Results follow in this order: HTT prom inh | PMP22 txn
> CCOC(=O)c1ccc(NC(=O)C2CCN(C(=O)N3CC(C)Oc4ccc(C)cc43)CC2)cc1 (stereo not given)
    u | 0%
> Cc1cccc(-c2noc(-c3ccc(NCc4cccnc4)c([N+](=O)[O-])c3)n2)c1
    22% | -88%
> CC(C)Nc1ccc(-c2nc(-c3ccncc3)no2)cc1[N+](=O)[O-]
    68%[activator] | 16%
> COc1ccc(CNC(=O)c2ccc(Cn3c(=O)c4cccn4c4cccnc43)cc2)c(OC)c1
    -2% | -1%
> CN1C(C(=O)c2ccccc2)=C(NC(=O)c2ccc(F)cc2)c2ccccc2S1(=O)=O
    -16% | 2%
> COC(=O)c1c(NC(C)=O)c2c3c(sc2n1Cc1cc(C)ccc1C)CCCC3
    11% | -1%
> COc1ccc(Cl)cc1S(=O)(=O)Nc1ccc2c(c1)n(C)c(=O)n2C
    u | u
> COc1ccc2ncc3c(-c4ccc(C)c(C)c4)nn(CC(=O)NC4CCCCC4)c3c2c1
    -2% | u
> CCOC(=O)Cn1cnc2onc(-c3ccc(F)cc3)c2c1=O
    -20% | -2%
> CCOC(=O)c1c(NC(=O)/C=C/c2ccc(OCC)cc2)sc2c1CCCC2
    -3% | -2%
> CCOc1ccc(NC(=O)CCc2c(C)nc3cc(-c4ccc(Cl)cc4)nn3c2C)cc1
    u | -26%
> COc1ccc(Nc2nc3ccccc3nc2NS(=O)(=O)c2ccc(Cl)cc2)cc1OC
    u | u
> CCN1C(=O)c2ccccc2S(=O)c2ccc(C(=O)NCc3ccc(F)cc3)cc21 (stereo not given)
    -22% | -17%
> COc1ccc(CCNC(=O)CCCn2c(=O)c3ccccc3n(CC(=O)Nc3ccccc3C)c2=O)cc1OC
    1% | -10%
> CC1=C(C(=O)Nc2ccccc2C)C(c2cccnc2)n2nc(SCc3ccccc3)nc2N1 (stereo not given)
    -9% | 7%

Later entries:
Results follow in this order: HTT prom inh | PMP22 txn
> Cc1ccc(NC(=O)Cn2nc(C(F)(F)F)c3c2CCCC3)cc1
    u | -14%
> O=C(Nc1ccccc1F)c1ccc(-c2ccccc2)s1
    15% | 2%
> O=C(OCCN1CCOCC1)c1cccnc1Nc1cccc(C(F)(F)F)c1
    -3% | x
> CN(C)S(=O)(=O)N(CC(=O)NCCSCc1c(F)cccc1Cl)c1ccccc1
    -25% | -4%
> Cc1ccc(S(=O)(=O)N2CCCc3cc(NC(=O)c4ccc(Cl)cc4)ccc32)cc1
    -27% | -3%
> CN(C)c1ccc(CNc2nc(-c3ccco3)nn2S(=O)(=O)c2ccc3ccccc3c2)cc1
    9% | -7%
> CCCSc1nc2c(c(=O)[nH]1)C(c1ccc(O)c(OCC)c1)CC(=O)N2 (stereo not given)
    -21% | -2%
> Cn1c(=O)c2c(-c3cccc(Br)c3)n(CCO)cc2n(C)c1=O
    -25% | u
> COc1ccccc1CNC(=O)C1CCN(c2nc3ccc(C)cc3[nH]2)CC1
    4% | -5%
> Cc1nn2c(-c3cccc(NC(=O)c4ccccc4)c3)nnc2c2ccccc12
    5% | -25%
> CCOc1ccc(C(=O)Nc2ccc(-c3nc4ccccc4s3)c(C)c2)cc1OCC
    57%[activator] | 6%
> COc1cccc(CNC(=O)CCc2nnc3n(C)c(=O)c4sccc4n23)c1
    8% | -3%
> CCn1cc(S(=O)(=O)c2ccc(OC)cc2)c(=O)c2cc(F)c(N3CCCCCC3)cc21
    1% | 0%
> CCOC(=O)c1ccc(-n2c(-c3ccc(C)cc3)c(C)n3c4c(=O)n(C)c(=O)n(C)c4nc23)cc1
    1% | -15%
> CCn1cc(C(=O)NCc2ccc(C)cc2)c(=O)c2cc(S(=O)(=O)N(C)C3CCCCC3)ccc21
    -1% | u

The list continues:
Results follow in this order: HTT prom inh | PMP22 txn
> Cc1sc2c(c1C)c(=O)n(Cc1ccccc1)c(=O)n2CC(=O)Nc1cccc(Cl)c1
    -23% | 4%
> COc1ccc(CCn2c(=O)c3cccnc3n(CC(=O)Nc3ccc(C)c(F)c3)c2=O)cc1OC
    10% | u
> COc1ccc(-c2nc(CNS(=O)(=O)c3ccc(Br)cc3)cs2)cc1
    u | u
> Cc1ccc(-n2c(=O)c3c(cnn3C)n(CC(=O)Nc3cccc(Cl)c3)c2=O)cc1
    -9% | 33%
> Cc1cccc(-n2c(SCC(=O)Nc3ccccc3Cl)nc3n[nH]c(C)c3c2=N)c1
    u | u
> Cc1cccc(N2CCN(C(=O)c3ccc(NC(=O)c4nsc5ccccc45)cc3)CC2)c1C
    -22% | -24%
> Cc1cc2c(cc1S(=O)(=O)N1CCC(C)CC1)OCC(=O)N2
    -32% | 7%
> CCOc1ccccc1CNC(=O)C1CCN(S(=O)(=O)c2c(C)noc2/C=C/c2ccccc2F)CC1
    -17% | -5%
> CCOc1ccc(C(=O)/C=C/c2cn(CC(O)CN3CCCCCC3)c3ccccc23)cc1 (stereo not given)
    -5% | u
> Cc1ccc(C(=O)COC(=O)C(CC(C)C)NC(=O)C2CCC(C)CC2)cc1 (stereo not given)
    -11% | 5%
> CC(=O)c1ccc(N2CCN(S(=O)(=O)c3ccc(-c4cc(C)no4)s3)CC2)cc1
    u | -16%
> Cc1c(Cl)cccc1NC(=O)c1ccc2c(c1)CCCN2S(C)(=O)=O
    u | -25%
> CC(=O)c1cccc(NC(=O)CCc2nc3cccnc3n2Cc2cccs2)c1
    -22% | 4%
> CCCCCCCCOc1ccc(C(=O)c2ccccc2)c(O)c1
    -10% | x
> Cc1nc(N2CCOCC2)c2c(C(=O)NCc3ccc(Cl)cc3)c(C)oc2n1
    1% | -6%

Remaining list, next part.
Results follow in this order: HTT prom inh | PMP22 txn
> Cc1cccc(NC(=O)C2CCCN(S(=O)(=O)c3c(C)noc3/C=C/N(C)C)C2)c1C (stereo not given)
    -21% | 4%
> O=c1c(N2CCCCC2)csc2ccc(F)cc12
    43%[activator] | -6%
> Cc1nc(-n2nc(C)c(CCC(C)C)c2C)sc1C(=O)Nc1ccc(Cl)cc1
    -8% | 12%
> CCOC(=O)c1c(-c2ccccc2)csc1NC(=O)c1cc(-c2ccc(Br)cc2)on1
    1% | -4%
> COc1ccc(S(=O)(=O)Nc2c(C)n(C)n(-c3ccccc3)c2=O)cc1Br
    -13%[11.5 µM] | 26%
> COc1cc(NC(=O)c2cc(C3CC3)nc3c2c(C)nn3-c2ccc(C)cc2)cc(OC)c1
    u | 1%
> Cc1cccc(C)c1NC(=O)c1oc2ccc3c(c2c1C)C(=O)CC(C)(C)O3
    -14% | u
> COc1ccc(-c2cc(C(=O)NCc3ccccc3)c3c(-c4ccccc4)[nH]nc3n2)cc1
    -14% | u
> C[n+]1ccccc1/C=N/O
    2% | x
> CCOC(=O)c1cnn(-c2ccc(C(=O)Nc3ccc(C(C)=O)cc3)cc2)c1N
    -7% | 8%
> Cc1ccc(C2=NN(CC(=O)NCCCN(CC(C)C)CC(C)C)C(=O)CC2)cc1
    -2% | -21%
> COc1ccccc1CNCCSc1nnnn1C
    -7% | 3%

Source: PubChem (National Center for Advancing Translational Sciences (NCATS))
